# High-throughput results as filed in PubChem.
# PINK1 expr mod: A Quantitative High throughput Screen to Identify Chemical Modulators of PINK1 Expression. 410,000 compounds, 0.2% hits. PINK1 immunofluorescence, high-content cytometry, 24 h. Potency, µM (titrated, usually from 76.6 µM), for inactives: top-dose activation (PINK1 increase), most hits filed as activators; active = well fitted activation curve with a large enough effect; inconclusive = small, poorly fitted or top-dose-only effect; inactive = flat fitted curve, though single readings scatter; cell line not stated here;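 further: potency means the concentration at half of the fitted maximal effect; % of control where 0% means no effect; nearly all actives have a fitted effect of over 65% in size; a mitochondrial uncoupler was the plate control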
#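 Stable cell line, 250 cells/well, 12 h attachment; compounds pinned at 5 concentrations, 24 h; CCCP control. Fixed with nuclear dye, primary antibodies 12 h at 10 degrees C, secondary plus cell stain; laser-scanning cytometer read.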
# CtBP-E1A blk: qHTS Assay for Inhibitors of the CtBP/E1A Interaction; CtBP / adenovirus E1A interaction (AlphaScreen); AlphaScreen GST-E1A/His-CtBP binding, 1536-well; active compounds read low; control for the full effect not named in the record; activity change, % (no concentration beside the values); 340,000 compounds, 0.49% hits; in the data active means activity change below about -65%; inconclusive means about -30% to -65%; inactive means above about -30%; further: on the % scale 0 is the no-effect control and ±100 the full control effect
#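 In 5 uL wells, 23 nL compound meets equimolar GST-E1A and His-CtBP (5X stock 125 nM each) for 2 h, 37 °C. Beads (5X, 50 ug/mL) then 1 h, 37 °C, dark.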
# TRPV1 potentiator: HTS Assay for Compounds that Act as Potentiators of the Vanilloid Receptor 1. potentiation, % at 8.33 µM. AID 540277, 2011. 320,000 compounds, 0.02% hits. Transient receptor potential cation channel subfamily V member 1 (Homo sapiens), Q8NER1. TRPV1-expressing cells, Fluo-8 calcium influx, capsaicin EC20 potentiation; host cell line not named in the record; control for the full effect not named in the record; active means potentiation above 80%; inconclusive means 30% to 80%; inactive means below 30%; further: 0% is about no effect
# Target sequence (Q8NER1 whole entry, looked up): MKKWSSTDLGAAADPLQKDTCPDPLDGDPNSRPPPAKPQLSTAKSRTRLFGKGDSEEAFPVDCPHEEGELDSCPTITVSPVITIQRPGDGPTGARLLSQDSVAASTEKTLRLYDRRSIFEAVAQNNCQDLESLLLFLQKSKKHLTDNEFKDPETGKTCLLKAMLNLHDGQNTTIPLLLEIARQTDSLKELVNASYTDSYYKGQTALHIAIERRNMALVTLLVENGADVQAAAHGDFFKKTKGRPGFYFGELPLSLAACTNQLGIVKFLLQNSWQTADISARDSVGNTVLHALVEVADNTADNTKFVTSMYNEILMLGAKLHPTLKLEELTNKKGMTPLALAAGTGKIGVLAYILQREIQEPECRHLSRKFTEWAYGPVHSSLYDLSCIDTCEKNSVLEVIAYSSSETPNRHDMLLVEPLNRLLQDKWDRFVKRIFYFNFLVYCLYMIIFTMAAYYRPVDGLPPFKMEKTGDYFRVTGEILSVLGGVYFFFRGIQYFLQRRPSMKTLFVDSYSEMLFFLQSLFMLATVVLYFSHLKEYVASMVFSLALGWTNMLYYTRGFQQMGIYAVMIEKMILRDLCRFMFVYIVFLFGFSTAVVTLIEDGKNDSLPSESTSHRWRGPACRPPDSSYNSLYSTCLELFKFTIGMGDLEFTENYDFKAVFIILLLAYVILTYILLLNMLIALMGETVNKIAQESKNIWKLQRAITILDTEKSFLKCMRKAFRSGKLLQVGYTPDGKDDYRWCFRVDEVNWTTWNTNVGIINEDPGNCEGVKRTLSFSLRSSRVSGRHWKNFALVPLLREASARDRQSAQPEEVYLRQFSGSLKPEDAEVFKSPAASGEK
#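 Fluo-8 calcium influx in TRPV1-expressing cells, kinetic read (ex 480/em 520 nm). Compound added and read 3 min for agonist activity, followed by capsaicin at EC20 final and 2 min further read for enhancement.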
# D2 agonist: Beta-Arrestin HTS for Positive Allosteric Modulators of the Human D2 Dopamine Receptor: Agonists; DiscoveRx PathHunter D2 beta-arrestin, luminescence, 90 min; 100% = 57 uM dopamine signal; activation, % (test concentration not listed); 360,000 compounds, 0.084% hits; in the data active = activation above about 40%; inconclusive = about 15% to 40%; inactive = below about 15%; further: compound concentration not given in the record; the text of the record calls up to 30% inactive
#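 DiscoveRx PathHunter D2 beta-arrestin cells (2,100/well) attached overnight, then compound-stimulated 90 min at 37 C in HBSS/10 mM HEPES/0.1% Tween-20 buffer; beta-galactosidase complementation read by luminescence after 1 h at ambient temperature. Dopamine 57 uM final (EC100) as control.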
# D2 potentiator: Beta-Arrestin HTS for Positive Allosteric Modulators of the Human D2 Dopamine Receptor: Potentiators | 360,000 compounds, 0.23% hits | DiscoveRx D2 beta-arrestin cells, luminescence, 90 min; 100% = 57 uM dopamine signal | AID 624464, 2012 | potentiation, % (test concentration not listed) | D(2) dopamine receptor (Homo sapiens), P14416; active = potentiation of 50% or more; inconclusive = 30% to 50%; inactive = 30% or less;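 further: compound concentration not given in the record; tested on top of an EC20 dose of dopamine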
#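 PathHunter D2 cells, attached overnight at 37 deg C, received compound in DMSO plus dopamine at EC20 (50 nM final) for 90 min at 37 deg C. Beta-arrestin recruitment was read as luminescence after 1 h with detection reagent at ambient temperature.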
# Six1-Eya2 inh: qHTS Assay for Inhibitors of the Six1/Eya2 Interaction; 360,000 compounds, 0.56% hits; Homeobox protein SIX1 (Homo sapiens) + Protein phosphatase EYA2 (Homo sapiens), …; activity change, % (no concentration beside the values); AlphaScreen GST-Six1/His-Eya2 binding, biochemical; active compounds read low; control for the full effect not named in the record; in the data active = activity change below about -65%; inconclusive = about -30% to -65%; inactive = above about -30%; further: on the % scale 0 is the no-effect control and ±100 the full control effect
#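 AlphaScreen luminescence read after one hour at 37 °C in darkness. Pin-transferred compounds met GST-Six1 and His-Eya2 protein (5X stock 250 nM/500 nM) plus glutathione donor and Ni-chelate acceptor beads (5X, 50 ug/mL).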
# Sfp inh: qHTS Assay for Inhibitors of Bacillus subtilis Sfp phosphopantetheinyl transferase (PPTase) | AID 1490, 2009 | 4'-phosphopantetheinyl transferase ffp (Bacillus subtilis), Q9F4F7 | Biochemical Sfp PPTase activity, qHTS | 310,000 compounds, 3.5% hits | Potency, µM, for inactives: max response, negative = inhibition, hits mostly inhibitors; active means well fitted inhibition curve with a large enough effect; inconclusive means small, poorly fitted or top-dose-only effect, or another doubt; inactive means no such curve, though single readings can be large or run the other way;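 further: the enzyme is Sfp with the accession as filed and its product quenches rhodamine fluorescence; potency means the concentration at half of the fitted maximal effect; 0% = enzyme reaction without inhibitor and -100% = no enzyme wells; top concentration of the series not given in the record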
#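 Reaction rates are the 30-min fluorescence difference (ex 525, em 598 nm) in wells containing 15 nM Sfp, 5 uM rhodamine-CoA and 12.5 uM BHQ-2-YbbR at pH 7.6 with 10 mM MgCl2.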
# * = called active by the depositor; ? = inconclusive; . = no result given; & = joins results of further samples; [ ] = remark or other dose. Hits appear at their usual frequency; 3.7% or so of the library scored in one or more.
SMILES,PINK1 expr mod,CtBP-E1A blk,TRPV1 potentiator,D2 agonist,D2 potentiator,Six1-Eya2 inh,Sfp inh
COC(=O)c1ccc(C(=O)OC)c(NC(=O)/C=C/C(=O)O)c1,0.7%,3,-9,-1.4,-3,10,40µM*
CCc1ccc(N2CC(C(=O)OCC(=O)Nc3ccc(C#N)cc3)CC2=O)cc1 (centres undefined),-1.2%,1,-1,-2.7,0,3,.
CCC(=O)NC(=S)NNC(=O)c1ccc(O)cc1,1.7%,2,0,-3.8,-17,-20,-11%
CCCc1cc(=O)[nH]c(SCC(=O)c2cc(C)n(C(C)COC)c2C)n1 (centres undefined),1.8%,-8,25,0.6,0,-3,-13%
S=c1[nH]nc(CSCc2ccccc2Cl)n1-c1ccccc1,.,-2,6,-2.2,1,6,-7%
Cc1cc2ccccn2c1C(=O)c1ccc(Cl)c([N+](=O)[O-])c1,0.2%,-12,7,0.2,-19,-13,-1%
CCCCCCCCN1C(=O)[C@H](CC(=O)NCC2CCCCC2)C[C@@]2(C(=O)OCC)CCCC=C12,?,-22,.,.,.,-4,.
COc1ccc(NC(=O)Cc2ccc(C)cc2)cc1S(=O)(=O)N1CCCCC1,2.7%,.,5,-0.2,-9,-8,.
COc1cccc(OCc2nc3ccccc3[nH]2)c1,-0.2%,2,.,-1.1,-5,-1,11%
O=C(Nc1ccc(-c2cn3ccsc3n2)cc1)C1COc2ccccc2O1 (centres undefined),0.4%,-29,7,-0.8,-6,?,4%
CC1=C(C#N)C(NC(=O)C(C)(C)C)(C(F)(F)F)C(=O)N1 (centres undefined),.,0,4,-0.1,2,5,16%
CCC(=O)Nc1nnc(-c2ccc(Cl)s2)o1,2.1%,.,-26,-1.4,-8,2,4%

# Quoted from the results shown, 12 compounds:
SMILES,PINK1 expr mod,CtBP-E1A blk,TRPV1 potentiator,D2 agonist,D2 potentiator,Six1-Eya2 inh,Sfp inh
COC(=O)c1ccc(C(=O)OC)c(NC(=O)/C=C/C(=O)O)c1,0.7%,3,-9,-1.4,-3,10,40µM*
CCc1ccc(N2CC(C(=O)OCC(=O)Nc3ccc(C#N)cc3)CC2=O)cc1 (centres undefined),-1.2%,1,-1,-2.7,0,3,.
CCC(=O)NC(=S)NNC(=O)c1ccc(O)cc1,1.7%,2,0,-3.8,-17,-20,-11%
CCCc1cc(=O)[nH]c(SCC(=O)c2cc(C)n(C(C)COC)c2C)n1 (centres undefined),1.8%,-8,25,0.6,0,-3,-13%
S=c1[nH]nc(CSCc2ccccc2Cl)n1-c1ccccc1,.,-2,6,-2.2,1,6,-7%
Cc1cc2ccccn2c1C(=O)c1ccc(Cl)c([N+](=O)[O-])c1,0.2%,-12,7,0.2,-19,-13,-1%
CCCCCCCCN1C(=O)[C@H](CC(=O)NCC2CCCCC2)C[C@@]2(C(=O)OCC)CCCC=C12,?,-22,.,.,.,-4,.
COc1ccc(NC(=O)Cc2ccc(C)cc2)cc1S(=O)(=O)N1CCCCC1,2.7%,.,5,-0.2,-9,-8,.
COc1cccc(OCc2nc3ccccc3[nH]2)c1,-0.2%,2,.,-1.1,-5,-1,11%
O=C(Nc1ccc(-c2cn3ccsc3n2)cc1)C1COc2ccccc2O1 (centres undefined),0.4%,-29,7,-0.8,-6,?,4%
CC1=C(C#N)C(NC(=O)C(C)(C)C)(C(F)(F)F)C(=O)N1 (centres undefined),.,0,4,-0.1,2,5,16%
CCC(=O)Nc1nnc(-c2ccc(Cl)s2)o1,2.1%,.,-26,-1.4,-8,2,4%

# (continued)
SMILES,PINK1 expr mod,CtBP-E1A blk,TRPV1 potentiator,D2 agonist,D2 potentiator,Six1-Eya2 inh,Sfp inh
S=C(Nc1ccccc1)Nc1cccc(Cl)c1Cl,1.4%,-3,0,-3.4,-10,16,-21%
COC(=O)C1=C(C)N(Cc2ccccc2)C(=NCCc2c[nH]c3ccccc23)N[C@H]1c1cccc(C(F)(F)F)c1,-1.7%,-10,-5,0.1,-10,-18,-22%
CCOC(=O)C1CCN(CC(=O)Nc2c(C(=O)OC)n(C)c3cccc(C)c23)CC1,-2.0%,6,-14,4.4,-9,1,10%
Cc1[nH]c(=O)[nH]c(=O)c1S(=O)(=O)Nc1cccc([N+](=O)[O-])c1C,-1.5%,3,-12,-3.4,-7,2,3%
COCCCN1C(=O)C(CC(=O)NCc2cccs2)CC(C(=O)N2CCOCC2)=C1C (centres undefined),-0.4%,-20,.,-7.8,-1,4,.
Cc1cc(C)n(C(=O)CNC(=O)c2ccc3c(c2)OCCO3)n1,0.7%,0,3,-3.4,-18,-12,15%
COc1ccccc1OCC(=O)N(Cc1nc(-c2ccccc2)no1)C1CCCCC1,6.8%,-3,-8,-2.8,-18,4,?
CC(=O)Nc1cccc2c1Cc1ccccc1-2,-1.3%,.,-1,2.2,3,4,7%
COC(=O)CCCC1=CC2=CC(=O)C(C)(OC(=O)c3cccs3)C(=O)C2=CN1Cc1ccc2c(c1)OCO2 (centres undefined),1.0%,.,-12,6.3,14,-20,-17%&-7%
CCc1nc2ccccc2c(C(=O)Nc2ccc(F)cc2)c1C,0.5%,8,1,-0.8,1,0,10%
CC(C)N(C)C1CCN(C(=O)Nc2ccc(Cl)cc2)CC1,5.2%[38.3 µM],-3,-5,-2.0,-4,-6,8%
CCCCN(C(=O)c1ccc(C)o1)c1c(N)n(CCCC)c(=O)[nH]c1=O,9.3%,4,3,-5.2,-27,0,.
COc1ccc2ncccc2c1Cc1c(OC)ccc2ncccc12,6.8%,-6,.,0.9,-4,-11,.
CC1=C(C(=O)Nc2ccccc2C)C2(CCCC2)C(C(N)=O)C(=O)N1 (centres undefined),1.1%[38.3 µM],4,1,3.7,-7,3,4%
COc1ccc(/C=N/NC(=O)CCC(=O)Nc2ccc(F)cc2)c(OC)c1,-1.3%,-8,4,1.0,-11,-3,21%
COc1ccc(CCN2CCCC(CN(C)Cc3cccc(OC)c3)C2)cc1 (centres undefined),2.0%,-11,-1,1.3,-15,-10,0%
O=C(COC(=O)c1ccccc1Cl)NC1CCCCCC1,1.6%,.,.,7.4,2,-2,.
Cc1ccc(OCC(=O)N2CC(C)OC(C)C2)c([N+](=O)[O-])n1 (centres undefined),4.2%,3,2,-1.0,-1,-20,19%
Fc1ccc(OCCCn2ccnc2)cc1,-0.4%,7,2,2.3,-2,-4,-6%
O=C(NCCCN1CCc2ccccc2C1)C1CCN(S(=O)(=O)N2CCC3(CC2)OCCO3)CC1,-1.6%,.,-2,-0.7,-18,4,-21%
O=C(CCCn1c(=S)[nH]c2cc3c(cc2c1=O)OCO3)NCc1ccccc1Cl,2.8%,2,-4,-0.8,-2,-1,19%
COc1ccc(C(=O)N2CCNC(=O)C2CC(=O)Nc2ccc(C)c(C)c2)cc1 (centres undefined),2.5%,11,2,-1.9,-15,-10,19%
NNC(=O)c1cccc(S(=O)(=O)Nc2cccc(C(F)(F)F)c2)c1,-0.5%,.,-2,-5.1,-3,9,17%
COC(=O)c1cc(=O)nc(NNC(C)=O)s1,0.9%,2,.,-6.2,-7,8,.
O=C(CNc1ccccc1)N/N=C/c1ccc2c(c1)OCO2,1.0%,.,?,-0.2,-10,-8,-1%
Cc1nnc(SCC(=O)NCC2CCCO2)n1-c1ccccc1 (centres undefined),2.9%,-1,-8,-1.4,2,4,-3%
N/C(=N\OC(=O)COc1ccc(Cl)cc1)c1ccc(Cl)cc1,9.4%,4,3,-6.3,-7,9,4%
c1ccc2c(c1)CCNC2c1ccncc1 (centres undefined),1.6%,9,-2,0.5,-24,4,5%
COc1ccc(-c2[nH]ncc2-c2cnn(-c3ccccc3)c2)c(O)c1,3.2%,-5,-4,3.2,16,-5,9%
CC(C)(C)OC(=O)[C@H](Cc1ccccc1)NC(=O)c1nc[nH]c1C(=O)N1CCN(c2ccccc2)CC1,1.6%,-9,15,-2.3,-8,-12,9%
C=CCn1c(=O)[nH]c2cc(C(=O)N3CCN(c4cc(C)ccc4C)CC3)ccc2c1=O,11%,-9,-12,0.5,-13,3,23%
Brc1c(-c2ccc3c(c2)OCO3)nc2ncccn12,-0.2%,-3,2,0.7,-2,-7,20%
CCOC(=O)N1CCC(c2[nH][nH]c(=O)c2C)CC1,-1.7%,9,-9,0.5,-10,1,-1%
Cc1ccccc1COC(=O)c1cc([N+](=O)[O-])ccc1N1CCOCC1,0.5%,-11,-5,-1.6,-5,-21,17%
O=C(NNS(=O)(=O)c1ccc(Br)cc1)c1cccs1,0.0%,9,8,-1.7,-5,9,12%
CCOc1ccc(OCC(=O)Nc2cc3c(cc2C(=O)O)OCCCO3)cc1,0.0%,0,27,-3.2,-3,3,?

# Looked up by structure from the entries so far:
SMILES,PINK1 expr mod,CtBP-E1A blk,TRPV1 potentiator,D2 agonist,D2 potentiator,Six1-Eya2 inh,Sfp inh
CC(C)(C)OC(=O)[C@H](Cc1ccccc1)NC(=O)c1nc[nH]c1C(=O)N1CCN(c2ccccc2)CC1,1.6%,-9,15,-2.3,-8,-12,9%
O=C(CNc1ccccc1)N/N=C/c1ccc2c(c1)OCO2,1.0%,.,?,-0.2,-10,-8,-1%

# Later entries.
SMILES,PINK1 expr mod,CtBP-E1A blk,TRPV1 potentiator,D2 agonist,D2 potentiator,Six1-Eya2 inh,Sfp inh
c1ccc(COc2ccc(-c3csnn3)cc2)cc1,0.2%,1,3,2.0,15,11,17%
O=C(NCC(c1ccco1)N1CCCC1)c1ccc(Cl)cc1 (centres undefined),-1.6%,3,-1,-3.1,-34,1,-6%
COC(=O)c1cc(C(=O)NNC(=O)c2ccc3c(c2)OCO3)cc([N+](=O)[O-])c1,-0.8%,-8,13,-2.5,-1,-2,.
COc1ccc(-c2cc(N)n(S(=O)(=O)Cc3ccccc3)n2)c(OC)c1,0.9%,2,8,-3.2,-3,-8,11%
C/C(=N/NC(=O)c1ccc(C(C)(C)C)cc1)c1cccnc1,0.3%,-2,.,-1.0,-10,1,.
